# hNpr1 antagonist: Natriuretic polypeptide receptor (hNpr1) antagonism - Primary qHTS; Atrial natriuretic peptide receptor 1 (Homo sapiens), P16066; HEK293 hNpr1 GloSensor cGMP, ANP-stimulated luminescence; Potency, µM (highest dose often 46.3 µM), without a hit: at the highest dose activity change, negative = inhibition, actives largely listed as inhibitors; 76,000 tested, 1.6% active; active = well fitted inhibition curve with a large enough effect; inconclusive = small, poorly fitted or top-dose-only effect; inactive = no such curve, though single readings can be large or run the other way;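 further: nearly all actives have a fitted effect of over 60% in size; nearly all hits also lower the signal before the agonist is added; a reference antagonist and vehicle were the controls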
# Target sequence (P16066 whole entry, looked up): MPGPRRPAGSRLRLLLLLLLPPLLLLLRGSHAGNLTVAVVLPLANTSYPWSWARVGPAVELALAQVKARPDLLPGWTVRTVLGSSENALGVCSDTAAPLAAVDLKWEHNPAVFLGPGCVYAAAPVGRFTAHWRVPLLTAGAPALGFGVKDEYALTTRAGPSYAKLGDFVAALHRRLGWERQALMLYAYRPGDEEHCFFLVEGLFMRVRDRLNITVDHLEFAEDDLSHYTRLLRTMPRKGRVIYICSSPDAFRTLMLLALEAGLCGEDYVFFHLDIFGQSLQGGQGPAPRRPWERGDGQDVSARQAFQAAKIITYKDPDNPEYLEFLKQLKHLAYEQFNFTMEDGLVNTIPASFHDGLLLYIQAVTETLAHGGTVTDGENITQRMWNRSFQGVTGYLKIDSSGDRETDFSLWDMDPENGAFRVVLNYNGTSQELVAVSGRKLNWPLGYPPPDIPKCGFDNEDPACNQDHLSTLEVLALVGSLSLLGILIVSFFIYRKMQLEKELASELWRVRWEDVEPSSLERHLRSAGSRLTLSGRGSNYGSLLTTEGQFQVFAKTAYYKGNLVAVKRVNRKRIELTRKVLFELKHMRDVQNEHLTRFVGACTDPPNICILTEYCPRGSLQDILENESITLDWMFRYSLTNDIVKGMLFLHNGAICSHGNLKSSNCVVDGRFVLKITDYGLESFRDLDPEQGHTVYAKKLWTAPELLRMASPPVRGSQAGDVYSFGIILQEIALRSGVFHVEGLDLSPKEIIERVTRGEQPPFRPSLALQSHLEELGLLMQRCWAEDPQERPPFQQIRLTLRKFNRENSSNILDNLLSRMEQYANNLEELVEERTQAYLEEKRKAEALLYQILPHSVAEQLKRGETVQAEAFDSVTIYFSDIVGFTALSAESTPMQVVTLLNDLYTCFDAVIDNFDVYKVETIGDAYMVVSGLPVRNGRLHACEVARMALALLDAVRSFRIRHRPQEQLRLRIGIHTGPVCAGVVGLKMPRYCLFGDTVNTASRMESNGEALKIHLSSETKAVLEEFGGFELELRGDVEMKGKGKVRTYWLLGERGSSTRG
#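 Compound pre-incubated 30 min at room temperature on GloSensor-loaded HEK293 cells stably carrying hNpr1 and the pGS-40F cGMP biosensor. Stimulation uses hNppA at 0.1 nM final; luminescence is taken at baseline and 20 min post-agonist.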
# * hit, by the source's call; u = inconclusive; [ ] = dose if it differs, or a comment. On the % scale 0 is the no-effect control and ±100 the full control effect; potency means the concentration at half of the fitted maximal effect.
no.	compound	hNpr1 antagonist
1	COc1ccc(CC2CCOC3(CCN(C(=O)NCC(C)C)CC3)C2)cc1 (centres undefined)	-8%
2	Cc1nc(-c2c3n(c(=O)n(Cc4ccccc4)c2=O)CCCCC3)no1	0%
3	COc1ncc(-c2cnc3[nH]cc(CC(=O)N4CCOCC4)c3c2)cn1	4%[70.6 µM]
4	CN(Cc1cccnc1)c1ccc2ncc(Nc3ccc4c(c3)OCO4)n2n1	-30%[70.6 µM]
5	CCc1nc(-c2c3n(c(=O)n(CC(=O)Nc4ccc(Cl)cc4)c2=O)CCCCC3)no1	0%
6	O=C(NCc1cccc(Cl)c1)c1cc2n(n1)CC(c1ccc3c(c1)OCO3)OC2 (centres undefined)	-16%
7	COCCOc1ccc(C(=O)N[C@@H]2CN(C(=O)Nc3ccccc3C(=O)OC)CCC[C@H]2O)cc1	2%
8	CN1C[C@@H](NC(=O)c2ccc(F)cc2)C[C@H]1c1nc(-c2ccncc2)no1	0%[70.6 µM]
9	c1ccc(-n2cc(CN3CCCC(OCc4cccnc4)C3)nn2)cc1 (centres undefined)	-3%
10	CN(Cc1ccccc1)C(=O)C1COC2(CCN(C(=O)CC(C)(C)C)CC2)N1C(=O)c1ccccc1 (centres undefined)	-1%
11	COc1ccc(CNC(=O)N2CCC3(CC2)CC(OCC2CC2)CCO3)cc1 (centres undefined)	2%
12	COc1ccccc1-c1cnc(Nc2cccnc2OC)c2c1CCO2	-23%[70.6 µM]
13	CN1c2cccnc2CN(Cc2ccco2)CC[C@H]1CO	5%[70.6 µM]
14	Cc1cc(=O)n(CC(=O)N2C[C@@H](C(=O)O)[C@H](C3CC3)C2)nc1C	-1%
15	COCCN1C(=O)c2ccccc2C(C(=O)Nc2nnc(COC)s2)C12CCCCC2 (centres undefined)	-4%
16	O=C(NCc1ccccn1)C1CCN(c2nccc(-c3cccnc3)n2)CC1	-1%
17	COc1ccc(-c2cc(N3CCCC(NC(=O)c4ccc5c(c4)OCO5)C3)n[nH]2)cc1 (centres undefined)	-20%
18	COCC1CN(C2CCC2)CC12CCN(C(=O)C1CC=CC1)CC2 (centres undefined)	-1%
19	Cc1cccc(NC(=O)N2CCCC(c3nn(C)c(=O)n3C3CCCC3)C2)c1 (centres undefined)	-2%
20	Cc1cccc(CNC(=O)C2CCCCC(=O)N2)c1 (centres undefined)	6%
21	O=C(NCc1ccccc1)NC[C@H]1O[C@@H]2C[C@@H](CC(=O)N3CCC(F)(F)C3)O[C@@H]2[C@@H]1O	1%
22	Cc1cc(C[C@@H]2COC[C@@H]2NC(=O)CN2CCN(c3ncccn3)CC2)on1	6%
23	COc1ccc(C(=O)N2[C@@H]3CC[C@H]2CC(NC(=O)c2ccncc2)C3)cn1 (some centres undefined)	-1%
24	Cc1nnc2n1C(C)CN(C(=O)CCn1cnc3ccccc3c1=O)C2 (centres undefined)	-1%
25	CN(C)c1cccc(-c2cnc(Nc3cncnc3)c3c2CCO3)c1	-18%[70.6 µM]
26	Cc1noc(-c2ccc3c(c2)OCO3)c1C(=O)NCc1cc(F)cc(F)c1	2%
27	COc1cccc(COC2CN(C(=O)CC3CCCC3)CC(=O)N(Cc3ccccn3)C2)c1 (centres undefined)	-2%
28	O=C(CC1CCCN(c2cnn(CC3CC3)c(=O)c2)C1)NCc1ccncc1 (centres undefined)	0%
29	Cc1ccc(N2CCN(C(=O)c3cc(-c4ccccc4O)n[nH]3)CC2=O)cc1	0%
30	COCCN1C(=O)c2cccn2CC1CNC(=O)Cc1ccccc1 (centres undefined)	0%
31	CC(C)c1ccc(CC(=O)N2CCCc3ncc(C(=O)NCCN(C)C)cc32)cc1	5%[70.6 µM]
32	COCCN1C(=O)CCC2(C(=O)NCc3c(C)n[nH]c3C)CCCC=C12 (centres undefined)	1%
33	CC(C)CC(=O)N1C[C@@H](Oc2ccccc2)C[C@H]1C(=O)N1CCOCC1	3%
34	O=C(NC1CCCN(c2cc(-c3ccccc3)[nH]n2)C1)c1cccc(Cl)c1 (centres undefined)	-21%
35	COc1ccc(NC(=O)Cn2nc3n(c2=O)CCCC3)cc1OC	-1%
36	Cc1ccccc1[C@H]1[C@@H](C(=O)NCc2n[nH]c(=O)[nH]2)C[C@@](C)(C(=O)O)N1C	-4%
37	CN1CCc2c([nH]c3ccccc23)C12CCN(C(=O)c1ccccc1)CC2	-2%
38	Cc1noc(C)c1CC(=O)N1CC[C@@H]2CN(S(C)(=O)=O)[C@@H]2C1	7%
39	O=C(c1ccccc1-c1nn[nH]n1)N1CCOCC(O)(CN2CCCC2)C1 (centres undefined)	5%
40	OCCc1ccc(Nc2cnc3ccc(N4CCOCC4)nn23)cc1	4%[70.6 µM]
41	Cc1cccc(OCC(=O)N2CCCN(c3cc(-c4ccc(Cl)cc4)[nH]n3)CC2)c1	u
42	COc1ccc(-c2cc(N3CCC(NC(=O)c4cc(C)ccc4C)C3)n[nH]2)cc1 (centres undefined)	-11%
43	COCCOC1CN(C2CCN(C(=O)c3cnccn3)CC2)C12CCCCC2 (centres undefined)	3%
44	O=C(c1ccccc1F)N1CCC2(CC1)N=C(c1ccc(Cl)cc1)NO2	u
45	CC(C)CCN1CCC(N2CCN(C(=O)CCc3ccccc3)CC2)C1=O (centres undefined)	2%
46	C=CCN(Cc1nc(-c2ccccc2)no1)Cc1nccn1C	-9%
47	N#Cc1cccnc1N1CCN(c2nccc(CCC(F)(F)F)n2)CC1	-2%
48	N#Cc1ccc(CN2CCC3(COc4ccccc4C(=O)N3)C2)cc1 (centres undefined)	u
49	CCN(CC)C(=O)CC[C@@H]1CNC(=O)[C@@H]2C[C@H](NC(=O)NC(C)C)CN12	3%[70.6 µM]
50	Cn1nc(C(=O)N2CCCCCCNC(=O)CC2)c2ccccc21	0%
51	CNC(=O)[C@H]1C[C@H](Oc2ccccc2)CN1C(=O)c1ccc(F)cc1	-19%
52	CCOc1ccc(NC(=O)Cn2ccn3nc4c(c3c2=O)CC(C)CC4)cc1 (centres undefined)	2%
53	COc1ccc(C(=O)NC(C(=O)NCC(C)C)C2CCN(C(=O)c3cccc(F)c3)CC2)cc1 (centres undefined)	-2%
54	CC[C@H]1CN(C(=O)c2ccnc(Cl)c2)CC[C@H]1CC(=O)NCc1ccc2c(c1)OCO2	-2%
55	CN(C)C[C@@H]1CN(C2CCOCC2)C[C@H]1NC(=O)c1ccc2ccccc2n1	3%
56	Cc1noc(C2CC3(CCN(C(=O)c4ccccn4)CC3)CN2C)n1 (centres undefined)	5%
57	O=C(O)c1cccc(CN2CCN(c3ccc4nccn4n3)CC2)n1	0%
58	CS(=O)(=O)N1CCC(C2CCN(C3CCOCC3)C2)CC1 (centres undefined)	4%
59	Cc1cc(C(=O)NCC(=O)N2CCCCCNC(=O)CC2c2ccccc2)n(C)n1 (centres undefined)	3%
60	CC(=O)Nc1cccc(-c2cn(C)c(=O)n3cc(COc4ccnn4C)nc23)c1	-12%[70.6 µM]

# Additional results.
no.	compound	hNpr1 antagonist
61	O=C(NC1CCCN(c2cc(-c3ccc(F)cc3)[nH]n2)C1)C1CCCC1 (centres undefined)	-3%
62	COCCN1C(=O)c2cccn2CC1CNC(=O)NCc1ccccc1 (centres undefined)	-5%
63	COCCO[C@H]1C(=O)N(C2CCN(C(=O)c3ccccn3)CC2)[C@H]1c1ccncc1	-1%
64	Cc1ccsc1C(=O)N1CCC(CCC(=O)N2CCC(Cc3ccccc3)CC2)CC1	u
65	Cc1nc2c(s1)C[C@@H]1[C@](C)(CO)[C@H](O)CC[C@@]1(C)[C@@H]2CC(=O)NCc1cccnc1	1%[70.6 µM]
66	O=C(NCc1ccccc1F)C1CCN(C(=O)c2ncn3c2COC(c2ccc(F)cc2)C3)CC1 (centres undefined)	0%
67	CNC(=O)C(C)(C)N1CCC[C@H]1C(=O)N[C@@H](CO)CC(C)C	4%[70.6 µM]
68	CCn1c(CC2CCN(S(=O)(=O)c3cccc(C)c3)CC2)nn(C)c1=O	7%
69	CCN1c2cc(C(=O)Nc3cccc(OC)c3)ccc2C(=O)N2CCCC21 (centres undefined)	5%
70	COCCN1CCC2(CCC1=O)CCN(C(=O)c1sc(C)nc1C)CC2	0%
71	CCC[C@@H]1CN(c2nc(C(=O)OCC)co2)C[C@H]1NS(C)(=O)=O	3%
72	O=C1CCN(Cc2cccnc2)CCCC(C(=O)NC2CCCC2)CCN1 (centres undefined)	0%
73	O=C(Cc1ccccn1)N1CCC(c2nn(-c3ccc(Cl)cc3)c(=O)[nH]2)CC1	-6%
74	Cc1cnc(CCNC(=O)c2n[nH]c3ccccc23)n1C1CCCC1	0%
75	O=C(O)[C@@H]1CN(C(=O)c2ccc(=O)[nH]c2)C[C@H]1c1ccc2c(c1)OCO2	6%
76	O=C(O)C[C@@H]1CCN(C(=O)c2ccccc2)C[C@@H]1CCN1CCN(c2ccccn2)CC1	5%
77	CCOc1ccccc1NC(=O)CC[C@H]1NC(=O)c2ccccc2NC1=O	2%
78	COc1ccc(C(=O)N2CCCC(c3nn(C)c(=O)n3C3CCCC3)C2)cn1 (centres undefined)	-1%
79	COCC(=O)N1CCC2(CCN(Cc3cc(C4CC4)n[nH]3)CC2)C(CO)C1 (centres undefined)	-2%
80	O=C(c1ccc(-c2cccnc2)nc1)N1CCCC(c2ccccc2)CC1 (centres undefined)	0%
81	O=C(Nc1ccc2c(N3CCCC3)ncnc2c1)c1ccccc1Br	-14%
82	O=C(NCC1CN(C(=O)CCc2ccccc2)CC12CN(c1ccccc1)C2)c1ccccc1 (centres undefined)	0%
83	CCN(CC)c1ccc(C(=O)NCc2nnc3cc(-c4nc(C5CC5)no4)ccn23)cc1	-15%
84	COc1cccc(CC(=O)N2CCOCCNC(=O)[C@@H]3CCCC[C@@H]32)c1	-1%
85	Cc1cc2cc(-c3c(C)noc3C)nc(NCc3cccnc3)c2o1	-14%[70.6 µM]
86	CCCc1cc(CNC(=O)c2ccc(N(C)C)nc2)on1	7%
87	CC(C)Cc1cc(C(=O)N2C[C@H](C3CC3)[C@@H](N)C2)n(C)n1	4%
88	O=C(NC1CCCCC1)O[C@@H]1CO[C@H]2[C@@H]1OC[C@@H]2n1nnnc1SCc1ccco1	-4%
89	COc1cccc(CNC(=O)[C@@H]2C[C@@H](O)CN2C2CCN(C(=O)C3CC3)CC2)c1	2%
90	COc1ccc(S(=O)(=O)NC[C@H]2O[C@@H](CO)[C@@H](O)[C@H]2N2CCN(C)CC2)cc1	1%
91	Cn1cc(CNC(=O)C[C@@H]2C[C@H]3O[C@H](CNC(=O)NCc4ccccc4)[C@@H](O)[C@H]3O2)cn1	1%
92	O=c1cc(-c2ccncc2)nc(-c2ccc(CN3CC[C@@H](O)C3)cc2)[nH]1	2%
93	COc1nccc(N2CCC(CC(=O)NCCN3CCC(C)CC3)CC2)n1	-12%
94	O[C@@H]1C[C@@H](c2nc(-c3ccc4c(c3)OCO4)no2)N(Cc2ccncc2)C1	u
95	CC(C)c1ncc(C(=O)N2CCCC(CCc3ccccc3F)C2)c(=O)[nH]1 (centres undefined)	-2%
96	Cc1ccc(Cn2cc(-c3ccncc3)cc2C(=O)N2CCCCCC2)cc1	-4%
97	CCn1ncc(N2CCC(NC(=O)Cc3cccc(OC)c3)CC2)cc1=O	-2%
98	CC(C)N1CCC(OCCCNC(=O)C2CCN(c3cnn(C)c(=O)c3)C2)CC1 (centres undefined)	8%
99	O=c1c2c(CO)c(-c3ccc(F)cc3)nn2ccn1Cc1ccccc1F	u
100	Cc1ccccc1CC(=O)N1CCC[C@H]1c1nc(-c2ccccc2Cl)no1	-13%
101	O=C(NC1CCN(Cc2ccccc2)CC1)c1cc2n(n1)CC(c1ccc3c(c1)OCO3)OC2 (centres undefined)	13µM*
102	O=C(NC1CC1)c1ccccc1OC1CN(Cc2cc(F)c(F)c(F)c2)C1	-10%
103	O=C(C[C@@H]1CCNC[C@@H]1Cc1cc(CN2CCCCC2)on1)NCc1cccs1	7%[70.6 µM]
104	CCC(C)(C)NC(=O)c1ccc(-c2nnc3ccc(NC(=O)C4CC4)cn23)cc1	-6%
105	Cc1noc(C)c1COc1ccc(C(=O)N[C@@H]2CN(C(=O)Nc3cccc(C(F)(F)F)c3)CCC[C@H]2O)cc1	-5%
106	O=C(Nc1cccc(Cl)c1)c1ccnc(-c2nnc3ccc(N4CCOCC4)nn23)c1	-9%[70.6 µM]
107	CCOc1cccc(CNC(=O)c2c(C)sc3ccn(CC)c(=O)c23)c1	-1%
108	O=C(NCC1CCCCO1)c1ccc(OC2CCN(C(=O)C3CC3)CC2)cc1 (centres undefined)	-3%

# Screens from PubChem BioAssay.

# Only part of the results is shown, so the mix of outcomes need not match the whole.
